UCH37 DUB inh: inhibitors of human deubiquitinating enzyme UCH37; 330,000 compounds, 0.33% hits; inhibition, % (concentration not given with the values); purified proteasome/UCH37, Ub-AMC cleavage fluorescence; Q9Y5K5;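 active means mean of two replicates above 20%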;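 further: 0% = compound-free wells with enzyme and 100% = wells lacking proteasome; stock transfer was 100 nL into about 20 µL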
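Material: Human UCH37 enzyme supplied as purified proteasome complex | Schedule: 30 min preincubation with enzyme, 25 min cleavage at room temperature | Detection: AMC fluorescence 355/460 nm | Measure: % inhibition of Ub-AMC cleavage fluorescence | Controls: Wells without proteasome as full block, compound-free enzyme plus substrate as uninhibited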
Beta2AR agonist: agonists of human beta-2 adrenergic receptor inducing internalization; P07550; Am2.2-beta2AR cells, FAP receptor internalization, flow cytometry; reference of the scale not given here; response, % (no concentration beside the values); 340,000 compounds, 0.43% hits;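 active means response above a set limit, near 3 SD of response in nonfluorescent compounds, cut at about 42% in these data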;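 further: stock transfer was 100 nL into about 11 µL; a reference agonist was the positive control; negative values mostly stem from fluorescent compounds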
Target sequence (P07550 whole entry, looked up): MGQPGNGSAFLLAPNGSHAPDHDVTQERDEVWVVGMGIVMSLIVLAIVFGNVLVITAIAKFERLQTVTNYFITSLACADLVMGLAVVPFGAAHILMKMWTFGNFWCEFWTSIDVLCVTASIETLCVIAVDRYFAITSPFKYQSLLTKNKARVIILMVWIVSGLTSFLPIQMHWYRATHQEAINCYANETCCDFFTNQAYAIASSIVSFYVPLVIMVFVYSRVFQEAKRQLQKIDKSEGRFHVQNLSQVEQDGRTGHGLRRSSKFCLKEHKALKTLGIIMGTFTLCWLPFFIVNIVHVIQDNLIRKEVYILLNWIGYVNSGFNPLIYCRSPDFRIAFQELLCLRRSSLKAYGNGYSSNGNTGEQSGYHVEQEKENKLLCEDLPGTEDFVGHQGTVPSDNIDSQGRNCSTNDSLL
Ecoli growth: E. coli growth inhibition; Escherichia coli growth, OD600, 23 h; stronger effect = lower value; OD600 absorbance (concentration not given with the values); 330,000 compounds, 0.21% hits;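 active means OD600 absorbance below the run mean of sample wells minus 3.6 SD, in any replicate, cut at about 0.56 in these data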;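 further: stock transfer was 300 nL into about 60 µL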
Bfl-1 A1 inh: inhibitors of the anti-apoptotic protein A1, read as caspase activation; MEF A1-2A-BIM cells, Caspase-Glo 3/7 luminescence, 3 h; percent of clofoctol response, vehicle zero; 330,000 compounds, 0.066% hits; caspase activation, % (concentration not given with the values);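 active means over half of replicate activation scores above 10%, or exactly half above 10 with the replicate mean above 10; inconclusive means replicate mean below 10 yet half the replicates above 10; inactive means over half of replicates below 10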;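 further: wells of about 30 µL received 50 nL stock; many hits fall short of the cut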
HNF4A DNA FP: change in binding of human HNF4 alpha to DNA; P41235; HNF4a-FITC DNA binding, fluorescence polarization, 1 h; activity change, % at 10 µM; 360,000 compounds, 0.3% hits; in the data active means activity change above about 30%, passing the limit was not always enough;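 further: controls were the assay level and a saturating level of protein; the project sought stronger binding though the title names inhibitors; some compounds called inactive have numbers as strong as hits; positive values seem to mean higher polarization but the record does not say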
Target sequence (P41235 whole entry, looked up): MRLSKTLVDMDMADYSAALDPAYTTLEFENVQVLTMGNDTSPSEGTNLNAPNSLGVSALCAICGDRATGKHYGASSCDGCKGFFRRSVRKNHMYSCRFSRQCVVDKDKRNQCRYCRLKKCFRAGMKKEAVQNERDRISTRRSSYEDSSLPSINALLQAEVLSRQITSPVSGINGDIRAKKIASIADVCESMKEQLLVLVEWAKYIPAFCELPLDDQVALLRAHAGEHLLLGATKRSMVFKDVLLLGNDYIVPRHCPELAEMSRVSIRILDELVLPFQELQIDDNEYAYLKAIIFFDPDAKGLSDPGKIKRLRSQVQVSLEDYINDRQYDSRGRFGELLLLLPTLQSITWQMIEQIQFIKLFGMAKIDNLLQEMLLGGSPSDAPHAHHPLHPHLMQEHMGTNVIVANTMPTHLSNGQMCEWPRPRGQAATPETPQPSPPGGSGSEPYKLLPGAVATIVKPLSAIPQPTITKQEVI
LANA-H2B inh: blocks KSHV LANA binding to histone H2A/H2B. AID 2629. 320,000 compounds, 0.6% hits. cell-free LANA-H2A/H2B peptide, fluorescence polarization. Q9QR71. inhibition, % (test concentration not listed); in the data active means inhibition mostly above about 10%, no sharp cut-off; inactive means mostly below about 6.7%;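 further: stock transfer was 7.5 nL into about 10 µL; 0% = median of vehicle wells and 100% = median of positive control wells; one replicate is shown; the record names a cut of 25% in any replicate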
Vif TR-FRET: HIV-1 Vif–A3G interaction blockers – biochemical, TR-FRET, GST-Vif 1-94, biotin-A3G peptide, dose response retest, primary screen (AID 1117319) | TR-FRET GST-Vif / biotin-A3G peptide binding; higher % means a stronger effect; test concentration not given here; strong numbers were not always called active | one-dose inhibition, %; IC50 in µM for titrated hits | 260,000 compounds, 0.57% hits;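 active means above the screen mean plus three standard deviations and confirmed in dose response; inconclusive means results disagree or hit not tested in dose response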;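 further: Vif residues 1-94 fused to GST binding biotinylated APOBEC3G peptide 110-148; 0% = full assay without inhibitor and 100% = GST in place of GST-Vif; retest series ran down from 100 µM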
The depositor's hits bear a star; i = inactive; u = inconclusive; x = no result given. Rows are unselected; overall some 2.1% were active at least once.

Molecule	UCH37 DUB inh	Beta2AR agonist	Ecoli growth	Bfl-1 A1 inh	HNF4A DNA FP	LANA-H2B inh	Vif TR-FRET
CCn1c(=O)cc(OCC(=O)N2CCCC2)c2ccccc21	1.9	-4	0.77	-1.2	-0.9	-2.2	-4%
COCCNC(=S)Nc1ccc(N2CCOCC2)c(S(=O)(=O)Nc2ccccc2OC)c1	2.8	4	0.7	0.9	-1.7	-0.7	x
Cc1csc(NC(=O)c2cc3c(s2)CCCC3)n1	-2.1	-4	0.67	-7.8	2.0	-4.5	-1%
Cc1nc(C(=O)NNC(=O)Nc2ccccc2)cs1	0.6	7	0.69	-0.2	1.8	8.7	-6%
CCc1ccccc1NC(=O)c1cc(S(=O)(=O)N2CCc3ccccc32)cn1C	3.2	-1	0.8	x	0.4	2.4	x
COCCn1cnnc1SCC(=O)Nc1cc(OC)c([N+](=O)[O-])cc1C	5.4	-2	0.71	-0.5	-3.4	3.7	u
COc1cc2c(cc1OC)C(C(=O)N1CCN(c3ccccc3)CC1)C(c1cccs1)N(C)C2=O (stereo not given)	0.6	2	0.68	-0.2	-5.8	3.4	1%
COc1ccc(NC(=O)c2ccc(Br)o2)c([N+](=O)[O-])c1	1.7	-2	0.72	0.8	1.3	-0.2	3%
O=C(Nc1nc2ccccc2s1)c1ccc(Cl)s1	-14	0	0.71	-7.3	-4.1	-5.7	-26%
C=CCOC(=O)C1=C(C)NC(=O)NC1c1ccc(Cl)cc1 (stereo not given)	3.6	-4	0.71	0.5	0.7	-2.9	-1%
CC(=O)N1CCN(c2nnc(-c3ccc(C)cc3)c3ccccc23)CC1	-0.1	0	0.66	0.0	3.2	-5.5	x
Fc1ccc(C[n+]2csc3ccccc32)cc1	x	6	x	-0.6	1.4	0.3	6%
Cc1ccc(-c2csc(N=C(N)N)n2)cc1	x	-4	x	4.1	3.0	2.3	-1%
Cc1[nH]c2ccc(F)cc2c1CCN(Cc1cccnc1)C(=S)NC(C)(C)C	6.5	-3	0.71	1.0	-1.6	6.2	0%
COC(=O)c1c(C)[nH]c(C(=O)/C=C/c2ccccc2Cl)c1C	0.2	-6	0.68	0.5	-0.2	-1.1	9%
COc1ccc(S(=O)(=O)N2CCN(C(=O)NCc3ccc(OC)c(OC)c3)CC2)cc1	4.2	-4	0.67	-0.4	0.8	6.8	-2%
Cc1cc(C)c(C(=O)OCc2csc(CC(=O)Nc3ccccc3C)n2)c(C)c1	2.6	13	0.69	0.8	2.2	0.5	x
CC1CN(Cc2nc3c(c(=O)n(C)c(=O)n3C)n2CCCc2ccccc2)CC(C)O1 (stereo not given)	2.4	1	0.74	-0.6	-2.4	-3.2	9%
COc1ccccc1NC(=O)CSc1nnnn1-c1ccc2c(c1)OCO2	4.2	7	0.67	0.2	0.6	-1.3	5%
Cn1cc(CN2CCC(C(=O)Nc3cccc(-c4cscn4)c3)CC2)cn1	0.6	-3	0.72	u	2.9	7.8	-1%
COc1ccc(C2CC(=O)OC3=C2C(=O)CC(C)(C)C3)c(OC)c1 (stereo not given)	1.4	4	0.66	0.0	-2.3	4.6	-3%
CCN(CC)CC(O)Cn1c2ccccc2c2ccccc21 (stereo not given)	7.2	13	0.71	0.5	2.7	3.7	21%
CC1CCN(C(=O)CSc2ccc(-c3ccc(F)cc3)nn2)CC1	1.3	-2	0.6	-0.1	2.7	6.1	-4%
CCC(Sc1ncccc1C(=O)Oc1cccc([N+](=O)[O-])c1)C(=O)Nc1ccccc1OC (stereo not given)	2.4	12	0.72	0.7	2.8	-0.3	6%
COc1ccc(OC)c(NS(=O)(=O)c2ccc(Cl)nc2)c1	2.1	-4	0.67	1.2	0.1	-0.2	x
O=c1[nH]c(-[n+]2ccccc2)c(/C=N/N=C(\[O-])c2ccccc2)s1	x	4	x	0.4	-0.4	-0.8	-8%
O=C(Nc1ncccn1)c1ccc(Cl)c([N+](=O)[O-])c1	2.0	-3	0.67	-0.6	-1.8	12	x
Cc1ccc(C)c(OCCC(=O)OCC(=O)Nc2cccc(S(=O)(=O)N3CCCC3)c2)c1	5.6	-2	0.7	-0.3	-0.9	1.8	-4%
COCCn1c(C)cc(C(=O)COC(=O)c2ccccc2Br)c1C	3.0	-4	0.7	-8.7	0.9	-1.3	x
Cc1ccc(NC(=O)c2cnccn2)cc1C	4.5	2	0.68	-6.2	1.1	2.0	7%
N#Cc1cc2sc3nc4ccccc4n3c2cc1C#N	1.4	x	0.74	x	x	x	-7%
Cc1ccc(C)c(C(=O)CCC(=O)O)c1	2.0	-8	0.64	0.4	4.0	-0.3	6%
COc1ccc(CN(C(=O)c2cnccn2)C(C(=O)NC(C)(C)C)c2cc(OC)c(OC)c(OC)c2)cc1 (stereo not given)	0.3	2	0.71	0.5	0.9	0.5	u
CN(CC(=O)Nc1ccccc1Cl)C(=O)c1cccc(S(=O)(=O)N2CCN(c3ccc(F)cc3)CC2)c1	0.8	-6	0.69	0.4	-0.1	-4.6	x
CCC(CO)N=CC1=C(O)CC(C)(C)CC1=O (stereo not given)	3.1	2	0.72	-0.2	-3.4	6.6	10%
Clc1ccc(Nc2nc(N3CCOCC3)nc(N3CCOCC3)n2)cc1Cl	-0.5	23	0.69	-0.4	4.3	7.0	-8%
CCS(=O)(=O)N1CCCC(C(=O)NCc2cccnc2)C1 (stereo not given)	x	-1	x	0.4	1.5	6.4	-1%
COC(=O)C(C)N1C(=O)S/C(=C\c2ccc(-c3ccc(C(=O)O)cc3C)o2)C1=O (stereo not given)	5.1	0	0.64	-1.4	-3.9	-0.6	16%
Cc1n(-c2ccccc2)c2ccc(Cl)cc2[n+]1CCO	-1.3	-4	0.67	1.6	0.8	1.4	1%
N#Cc1c(C(F)(F)F)cc(-c2cccc(Cl)c2)[nH]c1=O	i	2	0.66	-5.4	1.8	-4.3	-8%
Cc1ccc(C(=O)NCc2ccc3c(c2)OCO3)cc1N1CCCC1=O	2.5	-7	0.77	0.5	-4.9	2.4	-1%
O=C(CN(C(=O)c1csnn1)c1ccc2c(c1)OCCO2)NCc1ccc(F)cc1	2.4	2	0.68	0.1	16	-1.0	x
O=C(NC1(C(F)(F)F)NC(=O)N(Cc2cccnc2)C1=O)c1ccccc1Cl (stereo not given)	-1.3	-2	0.67	0.0	3.6	6.0	19%
CCOC(=O)c1c(C)n(C)c2cc(CN(C)C)c(O)c(S(=O)(=O)c3ccccc3)c12	5.3	1	0.65	0.0	0.8	4.7	x
CCSc1nsc(NC(=O)Nc2cccc(F)c2)n1	x	18	x	-2.9	4.0	11	x
c1csc(-c2nc(CN3CCSCC3)cs2)c1	1.8	-9	0.67	-6.6	-1.3	-1.2	-9%
Cc1ccc(C(=O)Nc2ccc(N3CCCC3)cc2)c(C)c1	0.6	16	0.69	0.0	7.0	0.0	3%
Cc1ccc(OC(=O)CCC(=O)N2CCc3ccccc32)cc1	2.3	3	0.67	1.6	-2.0	3.9	-1%
CCOC(=O)C1(Cc2cccc(Cl)c2)CCCN(C(=O)C(C)(C)C)C1 (stereo not given)	1.1	-5	0.72	0.4	-2.8	3.0	x
Cc1ccc2nc(C(=O)N3CCCC(Nc4ccc(F)cc4)C3)cn2c1 (stereo not given)	1.4	4	0.69	0.1	-0.4	-4.7	x

New compounds follow:
Molecule	UCH37 DUB inh	Beta2AR agonist	Ecoli growth	Bfl-1 A1 inh	HNF4A DNA FP	LANA-H2B inh	Vif TR-FRET
CC(OC(=O)C1=NNC(=O)CC1)C(=O)Nc1ncc(Cl)cc1Cl (stereo not given)	-0.1	4	0.67	-0.2	-6.4	5.8	10%
COc1ccc(CNC(=O)C(OC(=O)c2ccco2)c2ccccc2F)cc1 (stereo not given)	x	-7	x	-0.1	-1.1	0.5	x
COc1ccccc1-n1c(SCC(=O)NCc2ccc3c(c2)OCO3)nc2cc([N+](=O)[O-])ccc21	5.3	10	0.72	-1.0	0.6	0.9	23µM*
Cc1ccc(C(=O)NNS(=O)(=O)c2ccccc2[N+](=O)[O-])cc1	3.6	5	0.76	0.0	0.1	3.2	76%
Oc1ccc(/C=N/n2c3ccccc3c3ccccc32)cc1	x	7	x	-0.1	-0.8	0.2	-6%
COc1ccc(C(=O)NCc2cnn(C)c2C)cc1OC1CCN(C(C)C)CC1	-0.2	3	0.72	0.8	1.9	2.0	-2%
Cc1cccc(OCCCN2C(=O)C(=O)c3cc(C)ccc32)c1	0.7	15	0.69	0.5	-0.4	-4.6	u
COc1ccc(CN(Cc2ccc(C(=O)O)cc2)C(=S)Nc2cccc(C)c2)cc1OC	3.4	12	0.67	-0.3	-4.4	2.6	x
O=C(NNC(=O)c1cccc2ccccc12)c1ccc(F)cc1	3.0	-6	0.66	x	-0.4	x	0%
CCCCN=C(N)/C(C(=O)OCC)=C(\O)c1ccc(OC)cc1	0.5	-16	0.67	-0.7	4.8	3.1	23%
Cc1nnc(SCc2nnc(-c3cccs3)o2)n1C1CCCCC1	2.6	-16	0.69	0.8	-0.5	0.1	9%
NC(=O)CCCn1c(C(=O)c2ccc(Cl)cc2)c2ccc([N+](=O)[O-])cc2[n+]1[O-]	3.2	-12	0.57	-0.6	-2.2	0.5	x
CC(=O)Nc1ccc(/C=N/Nc2ccc(C(=O)c3c(C)cc4ccccn34)cc2[N+](=O)[O-])cc1	x	32	x	1.5	-5.8	0.6	68%
Cn1c(=O)c(=O)n(C)c2cc(S(=O)(=O)N3CC(=O)N(CCc4ccccc4)C(=O)C3)ccc21	-20	3	0.63	-0.9	2.3	1.0	x
O=C(O)CCC(=O)OCC1CCCCC1	1.5	10	0.66	-0.5	-2.4	0.2	4%
CC1CCCCC1NC(=O)Cn1cc([N+](=O)[O-])ccc1=O (stereo not given)	6.8	-1	0.73	0.2	-3.2	15*	-4%
CCOc1ccc(C(C)NC(=O)Nc2ccc(F)cc2F)cc1 (stereo not given)	1.1	-3	0.75	0.5	1.1	-2.9	-1%
CCS(=O)(=O)N1CCCC(C(=O)NCCCN(C)Cc2ccccc2)C1 (stereo not given)	29*	-10	0.69	1.2	0.1	1.5	1%
CCN(C[C@H]1N[C@@](Cc2ccccc2)(C(=O)OC)[C@H]2C(=O)N(C)C(=O)[C@@H]12)C(=O)Nc1ccccc1	-0.1	14	0.72	-0.4	-0.8	i	0%
Nc1nc2sc3c(c2cc1C(=O)NCC(=O)O)CCCC3	0.7	2	0.69	-2.0	-2.5	0.9	-3%
COc1ccc(CN2CC(C(=O)NCCCN3CCN(Cc4ccccc4)CC3)CC2=O)cc1 (stereo not given)	1.2	1	0.7	-1.1	0.4	-1.2	4%
COc1cccc(C2c3[nH]c4ccccc4c3CCN2Cc2ncc[nH]2)c1 (stereo not given)	-6.0	-4	0.7	-0.9	4.7	-4.8	-9%
Clc1ccc(SCCCCn2cncn2)cc1	1.0	-3	0.63	0.7	0.8	-1.3	6%

Shown with each value named: two of the compounds above
Cc1ccc(-c2csc(N=C(N)N)n2)cc1
  UCH37 DUB inh: x; Beta2AR agonist: -4; Ecoli growth: x; Bfl-1 A1 inh: 4.1; HNF4A DNA FP: 3.0; LANA-H2B inh: 2.3; Vif TR-FRET: -1%
Cc1[nH]c2ccc(F)cc2c1CCN(Cc1cccnc1)C(=S)NC(C)(C)C
  UCH37 DUB inh: 6.5; Beta2AR agonist: -3; Ecoli growth: 0.71; Bfl-1 A1 inh: 1.0; HNF4A DNA FP: -1.6; LANA-H2B inh: 6.2; Vif TR-FRET: 0%
